Screens: PubChem, several laboratories
Vif TR-FRET: inhibitors of Vif binding to APOBEC3G peptide, primary screen, biochemical, TR-FRET, GST-Vif 1-94, biotin-A3G peptide, dose response retest (AID 1117319); hit rate 0.57% among 260,000; TR-FRET GST-Vif / biotin-A3G peptide binding; higher % means a stronger effect; test concentration not given here; strong numbers were not always called active; inhibition, %; hits with a dose series show IC50 in µM;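 active means above the screen mean plus three standard deviations and confirmed in dose response; inconclusive means results disagree or hit not tested in dose response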;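 further: Vif residues 1-94 fused to GST binding biotinylated APOBEC3G peptide 110-148; 0% = full assay without inhibitor and 100% = GST in place of GST-Vif; retest series ran down from 100 µM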
RanGTP-Imp inh: disruptors of Ran-importin-beta complex formation – biochemical, FRET, CFP-Ran, YFP-importin-beta, homogeneous, primary screen; hit rate 1.1% among 300,000; cell-free CFP-Ran/YFP-importin-beta FRET ratio; inhibition, % (concentration not given with the values); AID 2216;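 active means most replicates above 15%; inconclusive means exactly half above 15%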;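 further: 0% = DMSO wells and 100% = Ran loaded with GDP instead of GTP; wells of about 40 µL received 100 nL stock; the first replicate is given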
HNF4A DNA FP: change in binding of human HNF4 alpha to DNA | HNF4a-FITC DNA binding, fluorescence polarization, 1 h | activity change, % at 10 µM | hit rate 0.3% among 360,000 | AID 1224865; in the data active means activity change above about 30%, passing the limit was not always enough;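 further: controls were the assay level and a saturating level of protein; the project sought stronger binding though the title names inhibitors; some compounds called inactive have numbers as strong as hits; positive values seem to mean higher polarization but the record does not say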
Calb FLC: C. albicans growth modulation with fluconazole. C. albicans CaCi-2 (fluconazole-resistant clinical isolate) + fluconazole, Alamar Blue growth, 48 h. growth inhibition, % (test concentration not listed). hit rate 0.57% among 300,000. AID 1979;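 active means most replicates above 75%; inconclusive means exactly half above 75%; inactive means most below 75%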;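 further: all wells also contain fluconazole at 8 µg/ml as a sub-toxic cotreatment; 0% = median of DMSO wells and 100% = median of geldanamycin control wells; wells of about 8 µL received 7.5 nL stock; the first replicate is given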
ALR inh: blocks human ALR sulfhydryl oxidase activity; hit rate 3.8% among 290,000; purified ALR, DTT oxidation, H2O2 HRP-luminol luminescence; inhibition, % (test concentration not listed);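 active means mean and each replicate at 75% or more; inconclusive means only one of the two met; inactive means neither met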;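 further: stock transfer was 7.5 nL into about 7.5 µL; 0% = neutral wells and 100% = wells with inactivated enzyme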
Target sequence (P55789 whole entry, looked up): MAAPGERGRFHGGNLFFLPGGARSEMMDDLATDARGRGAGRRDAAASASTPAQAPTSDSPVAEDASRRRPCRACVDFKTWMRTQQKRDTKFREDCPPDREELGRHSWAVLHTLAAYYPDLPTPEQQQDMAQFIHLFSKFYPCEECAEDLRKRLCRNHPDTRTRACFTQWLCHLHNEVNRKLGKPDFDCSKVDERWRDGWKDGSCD
B2AR ag: agonists of human beta-2 adrenergic receptor inducing internalization; response, % (no concentration beside the values); Am2.2-beta2AR cells, FAP receptor internalization, flow cytometry; reference of the scale not given here; P07550; AID 504454; hit rate 0.43% among 340,000;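 active means response above a set limit, near 3 SD of response in nonfluorescent compounds, cut at about 42% in these data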;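 further: stock transfer was 100 nL into about 11 µL; a reference agonist was the positive control; negative values mostly stem from fluorescent compounds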
Target sequence (P07550 whole entry, looked up): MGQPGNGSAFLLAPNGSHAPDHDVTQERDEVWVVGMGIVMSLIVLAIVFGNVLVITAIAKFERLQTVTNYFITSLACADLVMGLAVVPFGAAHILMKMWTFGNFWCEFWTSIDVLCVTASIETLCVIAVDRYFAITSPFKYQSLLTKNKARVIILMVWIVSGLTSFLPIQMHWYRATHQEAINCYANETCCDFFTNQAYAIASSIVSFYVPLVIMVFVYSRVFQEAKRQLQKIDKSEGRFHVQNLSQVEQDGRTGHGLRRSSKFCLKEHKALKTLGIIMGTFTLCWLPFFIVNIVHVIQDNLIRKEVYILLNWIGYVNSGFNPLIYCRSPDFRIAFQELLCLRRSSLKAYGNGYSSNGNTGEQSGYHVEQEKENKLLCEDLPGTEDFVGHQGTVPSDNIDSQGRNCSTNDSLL
LANA-H2A inh: blocks KSHV LANA binding to histone H2A/H2B. cell-free LANA-H2A/H2B peptide, fluorescence polarization. inhibition, % (no concentration beside the values). hit rate 0.6% among 320,000; in the data active means inhibition mostly above about 10%, no sharp cut-off; inactive means mostly below about 6.7%;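 further: stock transfer was 7.5 nL into about 10 µL; 0% = median of vehicle wells and 100% = median of positive control wells; one replicate is shown; the record names a cut of 25% in any replicate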
An asterisk follows results filed as active; ? = inconclusive; . = no result given; & = joins results of further samples.

SMILES	Vif TR-FRET	RanGTP-Imp inh	HNF4A DNA FP	Calb FLC	ALR inh	B2AR ag	LANA-H2A inh
CCN(CC)S(=O)(=O)c1ccc(=O)n(CC(=O)N2CCCc3cc(C)ccc32)c1	-10%	.	0.8	.	0	3	-1.0
COC(=O)c1ccc(COc2ccccc2/C=C(\C#N)C(=O)Nc2ccc(C)cc2C)cc1	?	-2.3	2.4	-2	-5	2	4.6
O=C(c1ccco1)N1CCN(c2c([N+](=O)[O-])nn(-c3ccc(Cl)cc3)[n+]2[O-])CC1	-11%	-1.4	3.1	0	.	-7	-4.9
COCCN(CCOC)C(=O)CSc1ccc(S(=O)(=O)N2CCN(C)CC2)cn1	-6%	.	1.2	.	.	-1	-6.0
COc1ccc(/C=N/NC(=O)Cn2c(Cc3ccc(OC)c(OC)c3)nc3ccccc32)cc1OC	14%	-1.5	-0.7	-1	-14	-5	1.5
COc1ccc(S(=O)(=O)N/N=C(/C)c2ccc(C)o2)cc1	.	11	-2.2	-1	71	-2	2.8
O=C1Cc2cc(NS(=O)(=O)c3ccc([N+](=O)[O-])cc3)cc3c2N1CCC3	1%	3.9	0.1	0	-2	7	3.9
O=C(CN1CCN(Cc2ccccc2)CC1)NCc1ccccc1Cl	.	3.2	-0.2	-7	.	-1	-1.4
CCCN1C(=O)c2ccccc2NC1c1ccc(Cl)c(Cl)c1 (stereo not given)	-4%	-3.0	-0.7	-21	3	-1	-0.2
CC(C)(C)C(=O)CNS(=O)(=O)c1ccc(S(=O)(=O)NC2CCCC2)cc1	-4%&3%	-1.0	1.5	11	0	7	-1.8
CC(=O)c1cccc(NC(=S)Nc2cccc3ccccc23)c1	-1%	0.9	0.3	44	-27	-6	6.0
CCOc1nc(NCCO)nc(Nc2ccccc2F)n1	-16%	?	3.8	?	-1	-1	-0.2
Cc1ccc(C(c2c(O)nc3n(c2=O)CCS3)c2c(O)nc3n(c2=O)CCS3)cc1	11%	5.1	5.0	?	97*	4	-6.8
C=CCn1c(SCC(O)Cn2c3ccccc3c3ccccc32)nnc1-c1ccco1 (stereo not given)	-2%	0.3	-0.3	15	-4	-5	-1.9
CCOC(=O)c1ccc(CNCc2ccccc2)cc1	.	2.5	6.2	1	1	10	-1.6
O=C(NCCCC(=O)N1CCCCC1)c1ccc(Cl)cc1	-6%	-0.1	8.1	-11	-12	2	-2.6
C/C(=C\C(=O)OCCCCCCCCC(=O)O)C[C@@H]1OC[C@H](C[C@@H]2O[C@H]2[C@@H](C)[C@H](C)O)[C@@H](O)[C@H]1O	.	-0.9	2.1	.	4	-3	-0.9
CN(c1ccc(C(=O)NCCSC(C)(C)C)cc1)S(=O)(=O)c1ccccc1	8%	-3.3	-48	19	1	-2	-1.4
O=C(Nc1ccccc1-c1ccccc1)c1ccccc1[N+](=O)[O-]	.	-0.5	1.4	8	0	-9	-3.2
CSc1nnc(NC(=O)c2ccc(C)c(S(=O)(=O)N3CCOCC3)c2)s1	-7%	-2.6	-0.1	-21	-7	4	5.4
O=C(Nc1ccncc1)C1CCN(S(=O)(=O)c2ccc(Cl)c(C(F)(F)F)c2)CC1	-12%	.	2.2	.	1	2	4.7
COc1ccc(-c2csc(NC(=O)CN3C(=O)CCC3=O)n2)cc1	-3%	-1.4	-1.3	6	2	-4	-1.9
O=C(CCc1ccccc1)NNC(=O)COc1ccc(Br)cc1	-7%	-0.7	-2.1	-9	.	3	0.2
CCOC(=O)C(NC(=O)c1ccc(OC)cc1)(OCC1(CC)COC1)C(F)(F)F (stereo not given)	-4%	-3.0	-0.2	18	-2	-2	-6.2
Cc1ccc(OCc2nnnn2-c2ccccc2)cc1	.	2.3	3.0	11	-5	-2	2.0
CC1CCN(C(=O)/C(=C\c2ccccc2)NC(=O)c2ccccc2)CC1	.	-5.8	1.7	24	8	3	-2.6
O=C(c1ccc(S(=O)(=O)Nc2ccccc2)cc1)N1CCOCC1	6%	-1.6	3.7	-12	-12	1	4.1
COc1ccc2c(c1)c(C(C)=O)c(C)n2-c1ccccc1	-7%	2.4	0.6	5	-3	-7	-1.9
COc1ccc(Nc2nc3ccccc3nc2NS(=O)(=O)c2ccc(NC(C)=O)cc2)cc1	-5%	12	-2.9	25	44	-4	1.5
COc1ccc(N2C(=O)CC(N3CCC(O)(c4cccc(C(F)(F)F)c4)CC3)C2=O)cc1 (stereo not given)	?	4.1	-3.8	-3	-18	6	-0.5
CCOc1cc(C(=O)NCc2ccncc2)cc(OCC)c1OCC	4%	8.0	3.1	39	3	1	-0.5
O=C(O)CCCCCNC(=O)/C=C/c1ccco1	25%	2.8	-3.3	?	-7	-6	2.0
COC(=O)CSc1nnc(-c2ccoc2C)n1-c1ccc(C)cc1	0%	1.3	6.0	8	22	2	-8.9
CC(C)CCc1noc(CN(C)CC2CCN(Cc3ccccc3)CC2)n1	18%	0.5	0.8	-19	.	-4	-2.6
CCC(=O)c1ccc(OCC(=O)OCC(=O)NC2CCCC2)cc1	7%	4.0	0.2	9	.	-8	-0.2
COc1cccc(CN2CCNC(=O)C2CC(=O)NCCCn2ccnc2)c1 (stereo not given)	.	2.9	3.2	-2	-1	-4	-5.0
COCCN(C(=O)c1csnn1)C(C(=O)NC1CCCCC1)c1ccccc1 (stereo not given)	.	9.5	-4.0	4	5	-2	0.6
COc1ccc(NC(=O)CN2CCN(CC(=O)Nc3ccccc3F)CC2)c(OC)c1	-6%	0.2	2.8	0	.	4	3.1
CCOC(=O)C(C)Sc1cc(CS(=O)(=O)c2ccccc2)nc(-c2ccccc2)n1 (stereo not given)	1%	0.4	3.2	-1	1	-1	-2.4
COC(=O)c1ccc(C(=O)OC)c(NC(=O)COC(=O)c2ccccc2OC)c1	0%	4.1	-0.8	?	4	8	-1.8
Cc1ccc(S(=O)(=O)N2CCOC2CNC(=O)C(=O)NCCc2c[nH]c3ccccc23)cc1 (stereo not given)	12%	-2.2	0.1	3	-6	7	42*
O=C(NCCC1=CCCCC1)C1CCN(C(=O)Nc2ccccc2)CC1	7%	10	0.5	-10	-2	4	7.6
Cc1cc(C(=O)NC2CCCCCCC2)ccc1[N+](=O)[O-]	.	?	-1.9	8	-2	-6	0.8
CCC1(CC)CNC(=O)NC1	-5%	.	0.3	.	.	-4	.
COC(=O)c1ccc([C@@H](O)[C@H](C)C(=O)CC(=O)OC(C)(C)C)cc1	.	0.8	0.3	-5	-3	5	0.3
CCn1cnc2cc(NS(=O)(=O)c3ccc(OC)c(OC)c3)ccc21	4%	-2.2	1.3	-5	-6	-2	-3.3
CSc1ccc(C(=S)N2CCN(CCO)CC2)cc1	-10%	0.7	-2.8	35	-21	-1	4.2
COc1ccc(N2C(=S)NC3CS(=O)(=O)CC32)cc1 (stereo not given)	.	0.4	5.0	0	-2	2	18
CCCC(=O)O[C@]1(C(=O)CO)CC[C@H]2[C@@H]3CCC4=CC(=O)CC[C@]4(C)[C@H]3[C@@H](O)C[C@@]21C	2%	0.8	1.7	-11	.	1	1.1&-3.9
COC(=O)c1ccc(OC(=O)CCS(=O)(=O)c2ccc(C)cc2)cc1	-4%	-0.7	1.0	-1	96*	-2	6.5

Later entries:
SMILES	Vif TR-FRET	RanGTP-Imp inh	HNF4A DNA FP	Calb FLC	ALR inh	B2AR ag	LANA-H2A inh
COc1cccc(CNC(=O)COc2cc(O)c3c(c2)OC(C)(C)CC3=O)c1	.	-2.5	1.1	-1	.	-6	3.1
Cn1c(CC(=O)NCCO)c(Sc2ccccc2)c2ccccc21	1%	2.3	-2.6	-7	32	-19	-0.5
CC(NC(=O)c1ccccc1Cl)c1ccc(-n2ccnc2)cc1 (stereo not given)	-7%	2.8	0.6	6	-1	1	4.3
CCc1cc(=O)oc2c3c(cc(OCC(=O)NC4CC4)c12)OC(C)(C)CC3	.	-2.1	3.4	-4	-3	-23	-7.2
COc1cc(OC)cc(C(=O)NCCN2C(=O)S/C(=C\c3cccs3)C2=O)c1	-13%	3.2	2.6	13	-2	-11	0.2
Cc1ccc(C(=O)NCC(C)NC(=O)c2ccc(C)c([N+](=O)[O-])c2)cc1[N+](=O)[O-] (stereo not given)	.	2.6	-3.2	13	-4	-10	-4.9
Clc1ccc(OCc2nnnn2-c2ccccc2)cc1	1%	-0.5	-1.6	3	.	-4	3.2
CCCCCCCCS(=O)C1CCS(=O)(=O)C1 (stereo not given)	-2%	1.4	-2.2	-11	1	2	-13
O=C(Nc1cc(-c2ccccc2)nn1-c1c(Cl)cccc1Cl)c1ccc(F)cc1	.	.	4.0	.	2	4	0.0
COc1ccc(N2CCN(C(=O)c3cn(C)c4ccc(S(=O)(=O)N5CCOCC5)cc4c3=O)CC2)cc1	0%	2.8	2.5	-6	35	6	11
CC(=O)Nc1cc2nn(-c3ccccc3)nc2cc1Cl	-2%	-4.3	-5.0	-3	-7	1	-1.1
Cc1noc(C)c1CSc1nc2sc(C)c(C)c2c(=O)n1C1CCCC1	4%	0.0	4.4	-1	-11	9	0.9
CSc1ccccc1C(=O)OCC(=O)Nc1ccc(N2CCOCC2)cc1	-2%	.	-4.3	.	25	1	-6.5
Cc1ccc(C)c(CSC2=NCCN2C(=O)Cc2ccc([N+](=O)[O-])cc2)c1	.	1.2	-0.8	6	-7	6	3.7
CCCS(=O)(=O)N1CCN(C(=O)c2ccccc2F)CC1	19%	-1.2	-0.3	4	-5	4	3.6
Cc1ccc(-c2c[nH]c(=S)n2-c2ccccc2)cc1	.	8.2	0.4	-34	71	6	1.4
COc1ccc(OCC(=O)OCC(=O)N2CC(=O)Nc3ccccc32)cc1	-2%	-1.7	-2.1	-2	-17	3	1.3
CCCN(CC(=O)Nc1ccccc1C)C(=O)C1CCN(S(=O)(=O)c2cccc(C(F)(F)F)c2)CC1	-6%	1.2	-1.8	-1	0	5	-4.7
CCCn1c(N)c(N(CCOC)C(=O)/C=C/c2cccc(Cl)c2)c(=O)[nH]c1=O	.	-2.2	-1.6	6	2	-6	0.1
CCCC(c1nnnn1CS(=O)(=O)c1ccc(C)cc1)N1CCN(c2ccc(F)cc2)CC1 (stereo not given)	2%	-1.6	-0.9	-5	0	1	-2.4
Cc1csc2c(NC3CCN(Cc4ccccc4)CC3)ncnc12	-15%	0.7	1.7	2	0	-9	-0.1
C/C(=C\c1ccccc1)C(=O)N1CCN(Cc2ccc3c(c2)OCO3)CC1	.	2.0	1.7	-64	-4	0	3.4
CC(C)CCNC(=O)NC(=O)COC(=O)/C=C/c1cccc([N+](=O)[O-])c1	-5%	2.2	-2.0	10	2	2	2.4
C/C=C/c1cc(CN2CCN(c3ccccc3)CC2)c(O)c(OC)c1	.	-1.6	1.6	-4	-3	15	2.0
CS(=O)(=O)N(CCc1ccccc1)CC(=O)NCc1ccco1	1%	-0.5	0.5	-5	-13	-2	-1.3
COc1ccc(NS(=O)(=O)c2cc(-c3cnc(C4CC4)o3)ccc2C)cc1	17%	-5.5	2.1	2	2	13	2.3
N#Cc1ccc(CN2CCN(C(=O)c3ccc(S(=O)(=O)N4CCCCCC4)cc3)CC2)cc1	-12%	.	-0.3	.	-5	6	-1.9
CN(Cc1cccc(F)c1)C(=O)C1CC(=O)N(c2ccc3c(c2)OCCO3)C1 (stereo not given)	.	.	0.7	.	1	-9	1.0
